Tg IFNy HTS: inhibitors of Toxoplasma gondii growth with IFN-gamma. activity change, negative = inhibition, %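 (about 20 µM by stock and volumes)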. AID 1259416. Toxoplasma gondii growth in IFN-gamma-treated host cells; stronger effect = lower value; reference of the scale not given here. hit rate 3.8% among 69,000;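 active = below -70%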;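 also: host cells are HeLa cells infected with Toxoplasma gondii; parasite growth read as luciferase light; one replicate is shown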
* marks the source's active call; other numbers are inactive results; i = inactive.

Start of the data: the first two entries, to show the layout:
SMILES	Tg IFNy HTS
CC(=O)c1ccc(C(=O)N2CCc3c(cnc(C)c3CNC(=O)/C=C/c3ccccc3)C2)s1	-11.4
COCC1CN(Cc2nccs2)Cc2cn(C)nc21 (stereo not given)	-48.6

The list itself, from the first entry:
SMILES	Tg IFNy HTS
CC(=O)c1ccc(C(=O)N2CCc3c(cnc(C)c3CNC(=O)/C=C/c3ccccc3)C2)s1	-11.4
COCC1CN(Cc2nccs2)Cc2cn(C)nc21 (stereo not given)	-48.6
COc1ccc2c3c([nH]c2c1)[C@@H](CO)N(Cc1nccs1)CC31CN(Cc2ccncc2)C1	381.2
CCOc1ccc(-c2nc3c(s2)CN(S(=O)(=O)Cc2ccccc2)CC3)cc1	10.3
O=C(O)CN1CCOC2C(Cn3cccc3)CCC21 (stereo not given)	51.0
CN1CC(=O)N(c2cccc(F)c2)CC12CCN(Cc1nccs1)C2 (stereo not given)	-51.5
Cc1cc(C(=O)NCc2ccc(N3CCOCC3)cc2)nn1C	-32.4
COc1cccc(CNC(=O)N2CCN(C(=O)NC(C)C)CC3(CC(=O)N(C)C3)C2)c1 (stereo not given)	4.8
COc1cccc(-c2cn(Cc3nc(C)cc(C(F)(F)F)n3)nn2)c1OC	-3.0
COC(=O)[C@@H]1C[C@@H](O)CN1C(=O)CCSCc1ccc(F)cc1	-3.3
CN1CCC(N(C)C(=O)c2cc3cccnc3n(Cc3ccc(F)cc3)c2=O)CC1	60.0
COc1ccccc1C#Cc1ccc([C@@H]2[C@@H](CO)N3CCCCN(C(=O)C4CCC4)C[C@@H]23)cc1	-27.5
C=CCOc1ccc(Cl)cc1C(=O)NCc1c(C)n[nH]c1C	39.4
CC(C)COCC1CC2(CC(C)(c3csc(N)n3)OC2=O)C(=O)O1 (stereo not given)	17.2
COc1ncc(-c2nccn2CCc2nc(C)cc(C(F)(F)F)n2)cn1	0.6
Cc1ccccc1NC(=O)N1C[C@H]2[C@H](C(=O)N(C)C)CCS(=O)(=O)[C@H]2C1	10.6
CCOc1cccc2sc(NC(=O)c3nc4ccccc4n(C)c3=O)nc12	-22.2
CN(C)c1ncc2c(n1)[C@H]1CN(Cc3ccccc3F)C[C@@H]1S(=O)(=O)C2	-102.7*
Cc1ccc(S(=O)(=O)Nc2ccc(S(=O)(=O)c3ccc(F)cc3)cc2)cc1	-44.0
CCC(C(=O)N(C)Cc1cc(C)no1)n1cc(C(C)=O)c2ccccc21 (stereo not given)	-0.1

Fetched by structure from the entries so far (two):
SMILES	Tg IFNy HTS
COc1ncc(-c2nccn2CCc2nc(C)cc(C(F)(F)F)n2)cn1	0.6
CCC(C(=O)N(C)Cc1cc(C)no1)n1cc(C(C)=O)c2ccccc21 (stereo not given)	-0.1

Next results
SMILES	Tg IFNy HTS
C[C@H](CO)N1C[C@H](C)[C@@H](CN(C)C(=O)Nc2ccccc2C(F)(F)F)OCc2cnnn2CCCC1=O	165.2
CSc1sc(NC(=O)Nc2ccc(Cl)cc2)cc1S(=O)(=O)C(C)C	-84.0*
CC(=O)Oc1c(C(C)C)cc(N(C(C)=O)c2ccccc2)cc1C(C)C	19.8
Cc1noc(C)c1C(=O)N(C)C[C@@H]1OCc2ccccc2-c2ccccc2C(=O)N([C@H](C)CO)C[C@@H]1C	-18.6
CCCC(=O)Nc1ccc2c(c1)C(=O)N(C)[C@@H]1CC[C@@H](CC(=O)NCc3cccc(F)c3)O[C@H]1CO2	4.4
CN(Cc1ccc(CO)o1)Cc1cccc2ncccc12	1.2
CN1C2CCC1CC(NC(=O)CSc1ccc(F)cc1F)C2 (stereo not given)	58.8
c1csc(CN2C[C@H]3CCCO[C@H]3[C@@H](N3CCCC3)C2)n1	-0.1
CC1(C)c2ccccc2N2CC(=O)NC21/C=C/c1ccc(F)cc1 (stereo not given)	23.1
CC(C)NC(=O)[C@@H]1C[C@H](N)CN1C(=O)c1cccc2cnccc12	-32.9
CC(CCc1ccco1)n1cnc(-c2ccccc2)c1C1CC1 (stereo not given)	8.9
COc1ccc(NC(=O)Cn2ncc3c(N4CCN(c5ccccc5)CC4)ncnc32)cc1Cl	-45.3
Cc1ccc(CN2C[C@@H]3OCCN(C(C)C)[C@H]3C2)cc1	-63.5
Cc1ccc(CN2C[C@@H]3C[C@H](C(=O)Nc4ccccc4)[C@@H](C2)O3)cc1	-51.8
CC(CCC(=O)O)N1CCN(C)CC1 (stereo not given)	-6.3
O=C(CCCc1ccccc1)NCCc1csc(-c2ccccc2)n1	i
COc1ccc(C(=O)Cn2nc3c(cc2=O)CN(c2ccc4c(c2)OCCO4)CC3)cc1	54.3
C[C@@H]1CN([C@H](C)CO)C(=O)c2cc(C3=CCCCC3)cnc2O[C@H]1CN(C)S(=O)(=O)c1cn(C)cn1	162.6
Cc1c(S(=O)(=O)N2CCNC(C(=O)O)C2)sc2ccc(Cl)cc12 (stereo not given)	7.8
CC(C)c1noc(-c2cc(=O)n(CC(=O)Nc3cc(F)ccc3F)c3ccccc23)n1	35.3
COc1cc(CNC(=O)C2(C)CCN(C(=O)c3ccccc3)CC2)cc(OC)c1	31.3
C[C@@H]1CCCCO[C@@H](CN(C)Cc2ccc3c(c2)OCO3)[C@H](C)CN([C@H](C)CO)C(=O)c2cc(NS(=O)(=O)c3cn(C)cn3)ccc2O1	-26.4
CC(=O)c1ccc(-n2cccc2CN(Cc2ccc3c(c2)OCO3)CC(C)O)cc1 (stereo not given)	10.3
COCCN(CC1CCCO1)C(=O)c1sc2ncn(C)c(=O)c2c1C (stereo not given)	2.5
Cc1ccc(-n2cccc2)c(NS(=O)(=O)c2ccc(-c3ccno3)s2)c1	-13.0
Cc1ccc(Nc2ncc(C(=O)NC(C)c3cn(C)nc3C)c(C)n2)cc1 (stereo not given)	7.2
Cc1noc(C(C)N(C)CC(=O)NCCc2ccc(Cl)cc2)n1 (stereo not given)	4.0
CS(=O)(=O)N(CC(=O)N1CCCC(c2cc3ccccc3cn2)C1)c1ccccc1F (stereo not given)	-29.1
Cc1ccoc1-c1n[nH]c(Cc2ccccc2)n1	1.0
O=C(O)CSc1nnc(-c2ccn[nH]2)n1-c1ccccc1Cl	55.4
COCC1(C(=O)NC(C)c2cnn(-c3ccccc3F)c2)CCC1 (stereo not given)	2.4
O=C1c2ccc(Br)cc2C(=O)N1CN1CCOCC1	-8.9
COc1ccccc1NC(=O)N1CC(=O)N2[C@H](CO)[C@H](c3ccc(C#CC(C)C)cc3)[C@H]2C1	-17.0
COc1ccc2nc(NC(=O)NC3CCCCC3)sc2c1	159.5
O=C(CNS(=O)(=O)c1ccccc1)NCc1ccccn1	-1.0
CC1(C)CC(O)(CNCc2ccc3c(c2)OCO3)CCO1 (stereo not given)	-40.5
CN(Cc1ccc(-n2cccn2)cc1)CC1CCC(N)CC1 (stereo not given)	0.0
Clc1ccccc1OCc1nncn1-c1cccnc1	-1.5
CO[C@@H]1CN(C)C(=O)c2ccc(NS(=O)(=O)CC(F)(F)F)cc2OC[C@H](C)N(C(=O)NC(C)C)C[C@H]1C	248.2
Cc1cc(C)cc(NC(=O)CSc2nnnn2-c2ccc3c(c2)OCO3)c1	-12.8
COc1ccc(CNc2nc(-c3nnc(-c4ccc(Cl)cc4)o3)nc3ccccc23)cc1	77.0
CCc1cc(=O)n2[nH]c(C3CCN(C(=O)CCc4cc(OC(C)C)no4)C3)cc2n1 (stereo not given)	11.7
NC(N)=NC(N)=Nc1ccc2ccccc2c1	31.9
Cc1ccc(CNc2nc(-c3ccc(Cl)cc3)nc3ccccc23)o1	-72.4
CC(=O)CC(=O)O	24.9
Cc1ccc(NS(=O)(=O)c2cc3c4c(c2)CCN4C(=O)CC3)c(C)c1	-23.3
Cn1c(C(=O)OC(C(=O)NCCc2ccccc2)c2ccccn2)cc2sccc21 (stereo not given)	-60.5
Cc1nc2c(c(N(C)CCCc3cnn(C)c3)n1)CNC2	3.8
O=C(O)COc1cccc(C(F)(F)F)c1	-3.7
Cc1ccc(S(=O)(=O)NC(=O)OCC2CN(Cc3ccccc3)CCO2)cc1 (stereo not given)	-10.7

A second format for part of the listing above:
molecule: Cc1ccc(NS(=O)(=O)c2cc3c4c(c2)CCN4C(=O)CC3)c(C)c1
  Tg IFNy HTS: -23.3

molecule: Cc1nc2c(c(N(C)CCCc3cnn(C)c3)n1)CNC2
  Tg IFNy HTS: 3.8

molecule: Cc1ccc(S(=O)(=O)NC(=O)OCC2CN(Cc3ccccc3)CCO2)cc1 (stereo not given)
  Tg IFNy HTS: -10.7

molecule: NC(N)=NC(N)=Nc1ccc2ccccc2c1
  Tg IFNy HTS: 31.9

(listing goes on)
SMILES	Tg IFNy HTS
CSc1ccc(CNC(=O)c2c(C)noc2C)s1	-33.3
O=C(CCCCc1ccccc1)N1CCc2c(nc(-c3ccncc3)[nH]c2=O)C1	2.8
Cc1ccc(CNC(=O)N2CCC(c3nc(C(=O)N(C)C)c(C)o3)CC2)cc1	139.9
Cc1noc(-c2ccccc2OC23CCCN(CC2)C3)n1 (stereo not given)	-19.6
COCCC(=O)N1Cc2[nH]nc(COc3cccnc3)c2C1	4.7
CN(Cc1cccc2ncccc12)S(=O)(=O)c1ccc2c(c1)sc(=O)n2C	-21.7
COc1ccccc1-c1nc(CSc2nc3c(=O)[nH]cnc3n2-c2ccc(C)cc2)c(C)o1	20.0
COc1cc(C(=O)NCc2cc(F)cc3c(C)c(C)[nH]c23)ccn1	2.3
COCCN1CCCC2(CCN(Cc3cnc(C)[nH]3)CC2)C1=O	-45.0
O=C1NC(CC(=O)N2CCCN(c3ccncc3)CC2)c2ccccc21 (stereo not given)	-2.5
Cc1ccc(OCc2nc(Cc3nc(-c4ccccc4)oc3C)no2)cc1	-63.4
CC(C)N(C)CC1CCC2(COCCN(C(=O)c3cscn3)C2)O1 (stereo not given)	57.1
O=C(c1ccccc1)N1[C@@H](CO)[C@@H](c2ccccc2)C12CN(Cc1nccs1)C2	48.7
O=C(O)C1CN(C(=O)CCCCc2ccccc2)CCN1 (stereo not given)	-1.4
N#C[C@H]1N[C@H](CO)[C@@H]1c1ccc(C#Cc2ccccc2F)cc1	-10.6
FC(F)(F)c1ccc2nc(SCc3cc(Cl)cc4c3OCOC4)[nH]c2c1	-80.7*
CCCNC(=O)N1CC2(CN(CC3CCCCC3)C2)c2c(n(C)c3cc(OC)ccc23)[C@H]1CO	-23.7
O=C(Cc1ccccc1)N1CCC2(CC1)COCCN(c1ncccn1)C2	-62.5
Cc1ccc(C(=O)N(Cc2ccc(Cl)cc2)Cc2nc3ccccc3c(=O)[nH]2)cc1	-42.0
Cc1ccc(C)c(NC(=O)N2CCC(c3nc(C(=O)N(C)C)c(C)o3)CC2)c1	75.5
CCc1nc(C)c(C(=O)NC(C)c2n[nH]c(C)n2)o1 (stereo not given)	-3.0
COc1ccc(-c2cc3c(=O)n(Cc4nc(-c5ccc(C)cc5)oc4C)ccn3n2)cc1	-48.9
Cc1cc(C(=O)Nc2ccc3c(c2)C(=O)N(C)[C@H]2CC[C@@H](CC(=O)O)O[C@H]2CO3)no1	2.3
Cc1nonc1CN(C)C(=O)CSCc1ccccc1Cl	-24.8
COC[C@@H]1CN(C)C[C@]12CCN(C(=O)CC1Cc3ccccc3C1)C2	4.2
CCn1c(CN2CCN(S(=O)(=O)N3CCOCC3)CC2)cnc1SC	-1.1
Cc1ccc(C(=O)c2cccc(NC(=O)CC(C)C)c2)cc1C	5.4
C1=CC2CC1CC2CNCC1CCCO1 (stereo not given)	-13.0
CCc1ccc(C(=O)Nc2ccc(-c3nc(Cn4cccn4)c(C)o3)cc2)cc1	-10.7
COc1cccc(CN2CC[C@]3(CCC[C@@H]3C(=O)N3CCOCC3)C2)c1	3.5
CN(C)C(=O)CN1CCC2(CC1)CC(NC1CCOCC1)c1ccccc12 (stereo not given)	-24.3
Cc1ccc(S(=O)(=O)Oc2ccc3oc(=O)sc3c2)cc1	12.4
Cc1ncc(CC(=O)NC2CC(=O)N(C3Cc4ccccc4C3)C2)c(=O)[nH]1 (stereo not given)	8.8
COC(=O)CNC(=O)c1ccncc1Br	42.1
Cc1cccc(-c2nc(C)c(CCNC(=O)c3cccc(C(F)(F)F)c3)s2)c1	196.8
Cc1cccc(-c2nc(C)c(CCNC(=O)C(=O)Nc3ccccc3)s2)c1	70.9
CCN1c2cc(F)ccc2C(=O)NC12CCN(C(=O)c1ccc(OC)c(OC)c1)CC2	39.7
CCCNC(=O)N1CC2(C1)[C@H](c1ccccc1)[C@H](CO)N2CC1CCOCC1	19.3
CCCCOc1ccc(C(=O)NCCc2sc(-c3ccc(Cl)cc3)nc2C)cc1	-74.4*
C[C@]12CCC(=O)C=C1[C@H](O)C[C@@H]1[C@@H]2[C@@H](O)C[C@@]2(C)[C@H]1CC[C@]2(O)C(=O)CO	16.4
Cc1nn(CC(=O)N2CCC3(CC2)OCCO3)c(=O)c2nc(-c3ccccc3)sc12	31.1
O=C(c1cccc(Cl)c1)N1CCC2(CC1)Nc1cccnc1NC2=NC1CCCC1	-0.7
COc1ccccc1CN1CCC(O)(c2cccc(C(F)(F)F)c2)CC1	-17.3
COc1ccc(-c2nc3cnccn3c2NCCC(=O)N2CCCC(C)C2)cc1 (stereo not given)	53.3
CC1(C)Cc2cc(CNC(=O)c3cccc(C4CCNC4)c3)ccc2O1 (stereo not given)	-3.0
Cc1cccc(NC(=O)Cn2ncc3c(N4CCN(c5ccccn5)CC4)ncnc32)c1C	43.0
O=C(CN1C(=O)CCc2cc(Br)ccc21)Nc1cccc2c1CCCC2	164.0
CSc1ccc(NC(=O)N(C)C(C)c2nc(C)sc2C)cc1 (stereo not given)	42.6
CN(C)C(=O)NC1CCOC2(CCN(Cc3cccs3)CC2)C1 (stereo not given)	-7.9
O=C([C@@H]1N[C@@H]2c3ccc(-c4ccc(F)cc4)c(=O)n3C[C@@H]2[C@H]1CO)N1CCc2ccccc2C1	2.5

(continued)
SMILES	Tg IFNy HTS
CCC1CN(C(=O)c2ccc(N3CCOCC3)nc2)CCN1C(C)C (stereo not given)	33.4
CNC[C@H]1OCc2cn(nn2)CCCC(=O)N([C@H](C)CO)C[C@H]1C	142.0
C[C@H](CO)N1C[C@H](C)[C@H](CN(C)S(=O)(=O)c2cn(C)cn2)Oc2cc(C#Cc3cccc(F)c3)ccc2S1(=O)=O	-93.3*
CCOc1ccc(-c2nc(CN3CCN(C(=O)Nc4ccc(C)c(F)c4)CC3)c(C)o2)cc1	-34.2

These rows are one share of the data; rates above refer to the full screens.
